# Sa helicase inh – inhibitors of S. aureus replicative helicase, primary screen, biochemical, fluorescence unwinding readout | replicative DNA helicase (DnaC/DnaB), Staphylococcus aureus | inhibition, %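 (tested at about 80 µM)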 | purified S. aureus helicase, fluorescence unwinding assay; about half of the hits fall short of the stated cut | actives 0.05% (n = 120,000);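 active means both duplicates at 50% or more, or one of them with a favoured structure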;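 further: 0% = mean of negative control wells and 100% = mean of positive control wells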
# MgrA DNA FP – S. aureus MgrA activity modulators, primary screen, biochemical, S. aureus Newman, fluorescence polarization | AID 602314, 2012 | actives 0.13% (n = 84,000) | MgrA-DNA binding | inhibition, %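 (about 10 µg/mL by stock and volumes)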;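 active means above 50% in either of two replicates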;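 further: 0% = protein plus DNA without compound and 100% = DNA alone without protein; higher means less MgrA bound to DNA so lower polarization; one replicate is shown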
# * marks the source's active call; other numbers are inactive results; / = not tested or not shown. Not all compounds are listed; the hit share may differ from the screen's.
SMILES,Sa helicase inh,MgrA DNA FP
Cc1cc(Oc2ccc(C(F)(F)F)cc2-n2cccc2)cc(C)c1Cl,/,-1.5
CCN1CCN(CCNC(=O)c2cc(-c3ccccn3)nc3ccccc23)CC1,0.0,/
CS(=O)(=O)/C(C#N)=C/c1ccccc1OCc1c(Cl)cccc1Cl,/,0.0
O=c1[nH]nc(Sc2ncnc3sccc23)n1CCc1ccccc1,7.0,/
Cc1cc(-c2ccccc2)nc2c1/C(=N\O)CC(C)(C)C2,/,0.1
O=C(Cn1cccc1C(=O)c1ccccc1)NCc1ccccc1,-6.0,/
CC(=O)N(C1=C(O)c2ccccc2C(=O)C1=O)c1ccccc1,19.0,0.7
O=C(CN1C(=O)c2ccccc2S1(=O)=O)NC1CCCC1,7.0,-1.1
COc1ccc(-c2onc(C(F)(F)F)c2-c2cnn(-c3ccccc3)c2)c(O)c1,-8.0,/
COc1ccc(N2CCN(C(=O)CNC(=O)c3ccccc3)CC2)cc1,-3.0,-0.9
COCCn1c(C)cc(C(=O)CSc2nnc(Nc3ccccc3C)s2)c1C,21.0,/
COC(=O)OC1CCS(=O)(=O)C1 (stereo unspecified),2.0,/
COC(=O)c1ccc(CSCC(=O)Nc2ccc(C)c(C)c2)o1,-14.0,/
O=C(Nc1ccccc1)C1CC2CCC1C2 (stereo unspecified),10.0,0.3
N#Cc1c(-c2ccco2)cc(C2CC2)nc1SCC(=O)c1ccc(Br)cc1,-18.0,/
O=C(Nc1ccncc1)c1cc2c(s1)CCC2,8.0,-2.0
COc1ccccc1Oc1ccccc1C(=O)N1CCCCCC1,18.0,1.3
CCCNC(=O)Cn1ncc2c([nH]c3ccccc32)c1=O,-28.0,/
NC(=O)c1cccc2ccccc12,-22.0,0.8
COc1ccc(-n2c(N)cc(=O)[nH]c2=O)cc1,/,-0.9
Cc1[nH]c2ccc(C(=O)Nc3ccccc3F)cc2c1C,5.0,/
COc1ccc(S(=O)(=O)N(CC(=O)Nc2ccc3c(c2)OCO3)c2ccccc2)cc1,6.0,1.3
Cc1ccc(NCc2ccc3c(c2)OCO3)cc1,16.0,-1.6
COC(=O)CNc1cccc(C(F)(F)F)c1,2.0,-0.5
Cc1cc(NC(=O)NC(C)(C)C)no1,11.0,1.4
FC(F)n1nnn(-c2ccccc2)c1=S,15.0,/
CC1CCC(Nc2ccc(S(=O)(=O)N3CCOCC3)cn2)CC1 (stereo unspecified),-9.0,/
CN(Cc1ccco1)C(=O)c1c[nH]c2ccc(S(=O)(=O)Nc3ccccc3F)cc2c1=O,-7.0,-0.8
CCN=C1SC(C(N)=O)CC(=O)N1CC (stereo unspecified),2.0,0.2
Cn1c(=O)c(=O)[nH]c2c(=O)oc3ccccc3c21,-19.0,/
NC(=O)NC(=O)Cn1ncc(Cl)c(Cl)c1=O,12.0,/
CC(=O)N1c2ccc(S(=O)(=O)N(C)CC(=O)N3CCN(C4CCCCC4)CC3)cc2CC1C (stereo unspecified),-12.0,/
N#CCC(=O)Nn1c(=S)[nH]c2ccccc2c1=O,-1.0,0.5
O=S(=O)(NCC1CC1)c1ccc(F)cc1F,/,3.0
Cc1nc(COC(=O)c2ccc3c(c2)S(=O)(=O)c2ccccc2C3=O)cs1,1.0,/
COc1cc2c(C)nc(C)c(C#N)c2cc1OC,-1.0,-0.3
O=C(/C=C1/Nc2ccccc2NC1=O)Nc1cccc(C(F)(F)F)c1,11.0,/
O=C(Nc1sc2c(c1C(=O)NCc1cccnc1)CCC2)c1cccs1,3.0,3.2
CC(=O)NC1C(Oc2ccccc2)OC2COC(c3ccccc3)OC2C1O (stereo unspecified),-4.0,/
O=S(=O)(NCc1csc(-c2cccs2)n1)c1cccc2cccnc12,/,-0.6
CSc1cccc(OC(F)(F)F)c1NC(=O)C(C)(C)C,/,0.2
Cc1nn(S(=O)c2ccc3ccccc3c2)c(C)c1Sc1ccc(Cl)cc1 (stereo unspecified),-4.0,2.6
CCOC(=O)c1c(N)sc2c1CCC(Sc1ccccc1)C2=O (stereo unspecified),6.0,1.9
COc1ccc(CCNc2ncnc3sc4c(c23)CCCC4)cc1,-9.0,2.0
CN(C)C(=O)/C(=C\c1ccco1)NC(=O)c1ccccc1,-26.0,/
Cc1ccc(C)c(C(=O)OCC(=O)NC2CC2)c1,-8.0,/
O=c1c2ccccc2nc(SCc2ccc(F)cc2)n1-c1ccccc1,1.0,1.3
COC(=O)CSc1nnnn1-c1ccc(C(=O)OC)cc1,12.0,3.0
O=C1SC(SCc2ccccc2)=N/C1=C\c1ccco1,2.0,6.0
Cc1ccc(N2C(=O)N(Cc3cc(=O)oc4cc(C)ccc34)C(=O)C2C)cc1 (stereo unspecified),3.0,/
Cc1ccc(NCc2ccccc2O)c(C)c1,16.0,/
Cc1cccc2sc(NC(=O)c3ccc(COc4ccc5ccccc5c4)o3)nc12,-7.0,1.5
O=C1C=C(O)c2nc(-c3ccccc3)cc(C(=O)O)c2C1=O,19.0,/
C/C(CCc1ccc2c(c1)OCO2)=N\NC(=O)c1ccccc1,-5.0,/
Cc1csc2sc(COC(=O)c3cc(C(F)(F)F)cc(C(F)(F)F)c3)c(C)c12,/,0.5
CC12C(=O)N(CCC3=CCCCC3)C(=O)C1C(c1ccccc1)C=CC2c1ccccc1 (stereo unspecified),2.0,-0.7
CN(C)CCC(=O)c1ccc2c(c1)OCCO2,/,8.4
Clc1ccccc1CSC1=NCCCN1,/,-3.4
COc1cccc(OC)c1C(=O)c1ccncc1,/,0.7
O=C(COC(=O)c1ccccc1Nc1ccccc1F)c1ccccc1,/,-0.7

# The results go on:
SMILES,Sa helicase inh,MgrA DNA FP
Cc1noc(C)c1C(=O)Nc1nc2ccc(Cl)cc2s1,/,0.0
N#CCc1ccc(OCc2c(F)cccc2Cl)cc1,/,-2.9
Cc1ccc(SC(C)C(=O)Nc2ccc(N(C)C)cc2)cc1 (stereo unspecified),-4.0,0.5
CNC(=O)COc1c(C)c(C)cc(C)c1C,16.0,0.8
CCCN(CCC)c1nc(Cl)nc(NCCN2CCOCC2)n1,-8.0,/
CC(=O)N1CCc2cc(N=Nc3c(N)[nH]n(-c4ccccc4)c3=O)ccc21,-1.0,/
CCOC(=O)c1cc(-c2ccccc2)no1,-18.0,/
Cc1cccc(N2CCN(C(=O)NC3CCCCC3)CC2C)c1 (stereo unspecified),12.0,/
CSc1ncc(Br)c(C(=O)O)n1,/,-4.9
COc1ccc(-n2cnc3cc(NS(=O)(=O)c4ccccc4)ccc32)cc1,16.0,-5.1
CC1Cc2ccccc2N1C(=O)COC(=O)c1ccc(Cl)c(N)c1 (stereo unspecified),-16.0,-0.9
O=C(c1cc(=O)[nH]c2ccccc12)N1CCN(Cc2ccc3c(c2)OCO3)CC1,-7.0,/
COc1ccc(Cl)cc1C(=O)Nn1c(-c2ccc(Br)cc2)nc2ccccc2c1=O,/,-2.1
Cc1ccc2oc(=O)c(-c3nc4ccccc4s3)cc2c1,13.0,5.1
COc1ccc(CC(=O)N2N=C(C(F)(F)F)CC2(O)C(C)(C)C)cc1 (stereo unspecified),5.0,0.0
C=CCSc1nnnn1-c1ccc(OC)cc1,4.0,-1.8
CC1=C(C)CC(C(=O)N2CCN(Cc3c(F)cccc3Cl)CC2)C(C(=O)O)C1 (stereo unspecified),/,-2.6
O=C(Nc1nc(-c2cccs2)cs1)c1cc(Cl)sc1Cl,-5.0,/
CC(C)(CO)NC(=O)c1ccc2c(c1)C(=O)c1ccccc1-2,7.0,/
CCCn1c(O)c(N=NC(=S)Nc2cccc(OC)c2)c2ccccc21,2.0,/
c1ccc(C2CCCSC2)cc1 (stereo unspecified),3.0,/
O=C(Nc1ccno1)NN1CCOCC1,/,-0.8
O=C(O)CC1Nc2ccccc2NC1=O (stereo unspecified),15.0,-0.6
O=C1NC(=S)N/C1=C/C=C/c1ccccc1,-46.0,/
NS(=O)(=O)c1ccc(CNC(=O)/C=C/c2ccc3c(c2)OCO3)cc1,12.0,-1.1
CC(C)CCNc1cc(C(C)C)c(C#N)c2nc3ccccc3n12,13.0,-0.6
Cc1csc(NC(=O)c2cccn(OCc3ccccc3)c2=O)n1,-25.0,/
Cc1c(-c2ccccc2)nnn1-c1cc(Cl)cc(Cl)c1,/,1.5
COCCc1nnc(CCOC)n1N,-14.0,0.8
Cc1cc(C(=O)COC(=O)C(C)N=C2NS(=O)(=O)c3ccccc32)c(C)n1C1CC1 (stereo unspecified),-4.0,/

# Looked up by structure from above (4):
SMILES,Sa helicase inh,MgrA DNA FP
C=CCSc1nnnn1-c1ccc(OC)cc1,4.0,-1.8
Cc1cc(C(=O)COC(=O)C(C)N=C2NS(=O)(=O)c3ccccc32)c(C)n1C1CC1 (stereo unspecified),-4.0,/
NS(=O)(=O)c1ccc(CNC(=O)/C=C/c2ccc3c(c2)OCO3)cc1,12.0,-1.1
O=C(Nc1nc(-c2cccs2)cs1)c1cc(Cl)sc1Cl,-5.0,/

# Later entries:
# Results follow in this order: Sa helicase inh | MgrA DNA FP
- COc1ccc(CCN2C(=O)CC(C(=O)Nc3ccc(C(C)=O)cc3)SC2=Nc2ccc(F)cc2)cc1 (stereo unspecified)
    / | 2.2
- CCCn1c(=O)c(C(=O)NC23CC4CC(CC(C4)C2)C3)c(O)c2ccccc21
    12.0 | 0.3
- CCOC(=O)C1CCC(CNCc2ccc(Cl)cc2)CC1 (stereo unspecified)
    8.0 | -1.9
- O=C(/C=C(\O)c1ccccc1)C(=O)NCc1ccccc1
    2.0 | 5.6
- Cc1ccc(C)c2[nH]c(=O)c(CCNC(=O)c3ccc(S(=O)(=O)N(C)C)cc3)cc12
    7.0 | /
- CC(=O)N1c2ccc(S(=O)(=O)N3CCCC3C(=O)N3CCn4c3nc3ccccc34)cc2CC1C (stereo unspecified)
    -24.0 | /
- O=C(NCC1CCCO1)c1ccc(Br)cc1 (stereo unspecified)
    0.0 | -1.0
- Cn1cc(CC(=O)NCCCN2CCCC2)c2ccccc21
    19.0 | /
- CCn1c2ccccc2c2cc(CN3CCN(c4ccccn4)CC3)ccc21
    -2.0 | 1.7
- O=C1C(c2ccccc2)c2ccccc2N1Cc1ccccc1 (stereo unspecified)
    / | -0.1
- CCN(CC)CCN1C(=O)C(=O)/C(=C(/O)c2ccc3c(c2)CC(C)O3)C1c1ccc(F)cc1 (stereo unspecified)
    2.0 | 0.1
- Cc1ccc(C2Nc3ccccc3NC3=C2C(=O)CC(C)(C)C3)o1 (stereo unspecified)
    -37.0 | /
- CN(C(=O)c1ccc2c(=O)n3c(nc2c1)CCCCC3)c1cccc(Cl)c1
    18.0 | /
- C[C@@H](C(=O)NC1=NCCS1)N1C(=O)C2CC=CCC2C1=O (stereo partly specified)
    -4.0 | /
- O=C(CSc1n[nH]c(=O)n1C1CC1)c1ccc(N2CCOCC2)cc1
    / | -0.6
- Cn1c(=O)c2c(ncn2Cc2ccccc2)n(C)c1=O
    -8.0 | /
- CC(=O)Nc1ccc(S(=O)(=O)NN2C(=O)/C(=C/c3ccco3)N=C2c2ccccc2)cc1C(=O)O
    -2.0 | -0.4
- O=C(O)CCC(=O)N1CCN(c2ccc(Nc3ccccc3)nn2)CC1
    10.0 | 3.1
- O=C(Cc1n[nH]c(=O)c2ccccc12)N1CCCSc2ccccc21
    -9.0 | /
- CC(C)(C)c1cc(N)c(C#N)s1
    / | -2.5
- CC(C)N(C(=O)COc1ccc2ccccc2c1)C(C)C
    -4.0 | 1.7
- COc1ccc(-c2noc(-c3cc4ccccc4o/c3=N\NS(=O)(=O)c3ccc(C)cc3)n2)cc1
    -17.0 | /
- OC1CCCN(CC(O)COc2c(Cl)cccc2Cl)C1 (stereo unspecified)
    -14.0 | /
- N#Cc1ccc(CSC2=NCCCN2C2CCCCC2)cc1
    / | -2.5
- CC(=O)OCC(CCn1cnc2cnc(N)nc21)COC(C)=O
    / | 0.4
- CC(=O)Nc1ccc2[nH]c(C)cc(=O)c2c1
    6.0 | -0.1
- Cc1ccc2[nH]c(C)c(CCC(=O)O)c(=O)c2c1
    -16.0 | -3.6
- Cc1cc2cc(CNC(=O)CCC3CCCC3)ccc2[nH]1
    9.0 | /
- Cc1nnc(Sc2cc(C(=O)NCCN3CCOCC3)c3ccccc3n2)s1
    9.0 | /
- O=C1CCN(C(=O)c2ccc(Cl)cc2)c2ccccc21
    24.0 | /
- Cc1ccc(S(=O)(=O)N(C)C(=O)NC(=O)Nc2ccc(S(=O)(=O)Nc3nc(C)cc(C)n3)cc2)cc1
    / | 0.0
- CCN(CC)c1ccc(NC(=O)c2ccc(Cl)cc2)c(N(CC)CC)n1
    / | 2.9
- COc1ccc(C2=NOC(C(=O)NCc3ccco3)C2)cc1 (stereo unspecified)
    -16.0 | /
- CCN(CCO)C(=O)CC(c1ccccc1)c1cc(Br)ccc1O (stereo unspecified)
    3.0 | 1.0
- O=C(Nc1nc2sc3c(c2c(=O)s1)CCCC3)c1ccccc1
    -17.0 | /
- CCc1ccc2[nH]c(C)c(CN(C)C)c(=O)c2c1
    -22.0 | /
- O=C(Nc1cccc(Cl)c1)OCc1ccc2c(c1)OCO2
    4.0 | /
- CCCOc1ccccc1C1Nc2ccccc2-c2nnc(SC)nc2O1 (stereo unspecified)
    / | 0.6
- CCCCC(=O)Nc1nnc(-c2c(C)c(C)cc(C)c2C)s1
    16.0 | /

# Four structures from above, ordered by formula weight, high to low.
# Results follow in this order: Sa helicase inh | MgrA DNA FP
- O=C(Nc1nc2sc3c(c2c(=O)s1)CCCC3)c1ccccc1
    -17.0 | /
- CCCCC(=O)Nc1nnc(-c2c(C)c(C)cc(C)c2C)s1
    16.0 | /
- O=C(Nc1cccc(Cl)c1)OCc1ccc2c(c1)OCO2
    4.0 | /
- CCc1ccc2[nH]c(C)c(CN(C)C)c(=O)c2c1
    -22.0 | /
